Resorufin fluor = resorufin region autofluorescence | Compound fluorescence, resorufin region 547/598 nm, buffer; stronger effect = higher value | max dye-equivalent concentration, M | actives 0.04% (n = 59,000) | AID 588; active = above 10 nM dye equivalent; inconclusive = 1 to 10 nM; inactive = 1 nM or less; a few of its hits are not listed in these tables; note: highest value over a series up to 38 µM
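Intrinsic fluorescence profiled in the resorufin window (ex 547 nm, em 598 nm) after 15 min at room temperature in pH 8.0 Tris buffer (100 mM); responses normalized against a six-point resorufin standard series as dye-equivalent concentration.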
A488 autofl = compound autofluorescence in A488 spectral region; AID 591; compound autofluorescence, A488 spectral region, dye equivalency; stronger effect = higher value; actives 0.1% (n = 59,000); max dye equivalency, M; active = above 10 nM dye equivalent; inconclusive = 1 to 10 nM; inactive = 1 nM or less; about half of its hits are not listed in these tables;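 note: highest value over a series up to 38 µM; compound alone in buffer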
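Compounds pin-transferred into 100 mM Tris buffer, pH 8.0, incubated 15 min at room temperature, then imaged with 480 nm excitation/540 nm emission filters. Fluorescence converted to Alexa 488 dye-equivalent concentration via an on-plate six-point A488 standard curve.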
A647 fluor = compound autofluorescence in A647 spectral region. Compound fluorescence, A647 channel (570/671 nm), Tris buffer. max dye-equivalent concentration, M. 59,000 tested, under 10 active; active means above 1 µM dye equivalent; inconclusive means 0.1 to 1 µM; inactive means 0.1 µM or less;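 note: values scaled relative to a standard on each plate; highest value over a series up to 38 µM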
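Tris 100 mM pH 8.0; cpd + A647 stds pin-transferred; 15 min RT; CCD imager, ex 570/em 671. Output = A647-equivalent conc. per cpd conc.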
AID923 = qHTS Assay for Allosteric/Competitive Inhibitors of Caspase-1: Spectroscopic Profiling in AFC Spectral Region. compound fluorescence, AFC spectral region (405/520 nm); almost no hit is shown here. Potency, µM (titrated, usually from 57.5 µM), for inactives: top-dose fluorescence increase, usual class: activators. actives 1.1% (n = 75,000). AID 923, 2007; active = well fitted activation curve with a large enough effect; inconclusive = small, poorly fitted or top-dose-only effect;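 note: potency is the fitted concentration of half-maximal effect; 0% is about no effect; scaled to a free AFC standard on each plate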
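Compound autofluorescence profiled at 405 nm ex/520 nm em during kinetic caspase 1 run (50 nM enzyme, 5 uM Ac-WEHD-AFC, HEPES pH 7.5, 10 mM DTT). Titration up to 57 uM; baseline from regression intercept, normalized to AFC standard curve.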
TSHR agonist = TSH receptor (human) agonism | AID 926 | HEK293-CNG-TSHR cells (CNG channel as cAMP sensor), membrane potential dye, cAMP | actives 0.48% (n = 73,000) | Potency, µM (highest dose often 57.1 µM), for the others: top-dose activation, hits mostly activators; active = well fitted activation curve of enough size with the parental cells flat; inconclusive = any curve in the parental cells; inactive = parental cells flat and receptor cells flat or falling; note: potency is the fitted concentration of half-maximal effect; % of control where 0% means no effect; weak receptor curves with flat parental cells got no call and are not listed
Target sequence (P16473 whole entry, looked up): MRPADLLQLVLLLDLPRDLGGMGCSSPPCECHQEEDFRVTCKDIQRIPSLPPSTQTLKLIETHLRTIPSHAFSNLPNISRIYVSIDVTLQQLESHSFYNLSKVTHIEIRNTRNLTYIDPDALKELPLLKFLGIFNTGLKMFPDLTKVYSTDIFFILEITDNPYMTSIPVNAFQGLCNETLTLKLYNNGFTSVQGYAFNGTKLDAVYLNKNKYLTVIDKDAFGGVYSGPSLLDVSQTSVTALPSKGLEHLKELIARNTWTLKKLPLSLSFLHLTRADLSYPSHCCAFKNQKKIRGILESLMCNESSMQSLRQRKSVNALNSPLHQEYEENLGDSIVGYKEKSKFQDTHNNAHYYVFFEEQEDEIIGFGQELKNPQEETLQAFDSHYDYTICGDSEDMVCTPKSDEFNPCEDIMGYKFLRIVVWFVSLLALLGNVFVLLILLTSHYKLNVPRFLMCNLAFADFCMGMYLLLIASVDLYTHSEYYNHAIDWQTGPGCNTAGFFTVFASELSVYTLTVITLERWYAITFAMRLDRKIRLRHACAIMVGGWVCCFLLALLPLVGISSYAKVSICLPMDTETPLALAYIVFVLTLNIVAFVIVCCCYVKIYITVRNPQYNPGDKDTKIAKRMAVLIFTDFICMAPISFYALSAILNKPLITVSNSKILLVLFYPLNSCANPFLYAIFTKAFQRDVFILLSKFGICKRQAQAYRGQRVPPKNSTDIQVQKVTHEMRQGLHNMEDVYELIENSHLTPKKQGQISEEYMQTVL
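cAMP rise detected as CNG-channel membrane depolarization by fluorescent dye (emission 590 nm), 30 min after compound, following 60 min dye loading containing 100 uM RO 20-1724 at room temperature. Cells: TSHR/CNG HEK 293, with parental CNG HEK 293 as control.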
An asterisk follows results filed as active; i = inactive; ? = inconclusive; nt = no result given; [ ] = dose if it differs, or a comment. The list is partial, so the mix of outcomes need not match the whole.

Under each structure: Resorufin fluor, A488 autofl, AID923, A647 fluor, TSHR agonist
NC(=O)N1CC(O)CC1C(=O)Nc1ccc(Cl)c(Cl)c1 (stereo not drawn)
→ i, i, -0.1%, 4e-09, -4%
CC(C)C(c1nnnn1CC1CCCO1)N1CCN(C2CCCC2)CC1 (stereo not drawn)
→ i, i, -4.0%, 1e-09, 7%
CCSc1nncn1/N=C/c1ccc(OC)c(OC)c1
→ nt, nt, 1.9%, nt, 20%
CC(=O)Nc1cccc(OCC(=O)Nc2ccccc2)c1
→ i, i, 1.9%, 1e-09, 1%
Cc1ccc(/C=c2\sc3nc(-c4cccnc4)nn3c2=O)cc1
→ i, i, 3.6%, 3.8e-09, 0%
CN(C)c1ccc(-c2cncnc2NCCN2CCOCC2)cc1
→ i, i, 5.0%, 6.2e-09, 4%
O=C(CCN1C(=O)c2ccccc2S1(=O)=O)Nc1ccc2c(c1)OCCO2
→ i, i, -0.9%, 1.8e-08, -5%
O=C(NCc1ccc2c(c1)OCO2)c1ccc(-c2ccc(Cl)cc2)o1
→ i, i, -1.2%, 4.8e-09, ?
Cc1cc(C)cc(OCc2nnc(SCC(=O)OC3CCCCC3)o2)c1
→ i, i, 3.7%, 2.4e-08, 2%
O=c1c(-c2ccccc2)nc2cncnc2n1Cc1ccccc1Cl
→ i, i, 8.6%, 3.2e-08, -15%
CC(C)(C)OC(=O)N1CC(O)CC1C(=O)OCC(=O)c1ccc(Cl)cc1 (stereo not drawn)
→ i, i, -0.8%, 1e-09, 3%
CCOC(=O)OCC1OC(C#Cc2ccc(C(C)(C)C)cc2)C=CC1OC(=O)OCC (stereo not drawn)
→ nt, nt, -0.9%[11.5 µM], nt, -3%[11.4 µM]
CC(C)Nc1nc(SCC(=O)Nc2ccccc2)nc(N2CCOCC2)n1
→ i, i, 0.5%, 1.2e-08, 7%
CCn1c(COc2ccccc2)nnc1SCc1ccc(C#N)cc1
→ i, i, -0.8%, 4.4e-09, ?
CC(=O)Nc1cc2c(cc1C(=O)C(C)C)OCCO2
→ i, i, 1.5%, 2.5e-09, -4%
CSc1ccc(/C=N/n2nnnc2N)cc1
→ i, i, 1.7%, 6.4e-09, 6%[11.4 µM]
O=C(c1cc(-c2cccnc2)nc2ccc(Br)cc12)N1CCC2(CC1)OCCO2
→ i, i, -0.1%, 5.7e-09, 14%
Fc1ccc(C(c2nnnn2Cc2ccccc2)N2CCSCC2)cc1 (stereo not drawn)
→ i, i, 0.2%, 1.9e-09, ?
O=C(CSc1ccc2nnc(-c3cccnc3)n2n1)NCc1ccco1
→ nt, nt, -0.9%, nt, ?
O=C(Nc1ccc(S(=O)(=O)N2CCCCCC2)cc1)c1ccc(Br)o1
→ nt, nt, -1.6%, nt, 0%
O=c1[nH]cnc2nc(-c3ccccc3)c(-c3ccccc3)nc12
→ i, i, 4.5%, 1.9e-08, ?
COc1ccccc1-n1c(C)nnc1SCC(N)=O
→ i, i, 0.1%, 5.7e-09, ?
COCCNC(=O)C(c1ccc(C)o1)N(C(=O)c1snc(C(N)=O)c1N)c1ccc(C)c(C)c1 (stereo not drawn)
→ i, i, 0.8%, 3.1e-08, nt
CCCCCOC(=O)CSc1nnc(-c2cc(OC)c(OC)c(OC)c2)o1
→ i, i, 0.5%, 3.5e-08, 13%
O=C(NC1CCCCC1)N(Cc1nc2ccccc2c(=O)[nH]1)C1CCCCC1
→ i, i, 0.9%, 4.2e-08, ?
O=C1CC(c2ccc(F)cc2)Cc2nc(N3CCN(c4ccccc4)CC3)ncc21 (stereo not drawn)
→ i, i, 0.8%, 2.3e-09, 7%
O=C(CCCCn1c(=O)c2ccccc2n(Cc2ccc(F)cc2Cl)c1=O)NCc1ccco1
→ i, i, 2.8%, 2.4e-09, ?
COCC(C)NC(=O)c1cc(-c2ccc(O)cc2)on1 (stereo not drawn)
→ nt, nt, -7.1%, nt, 22%
CCC(C(=O)Nc1cnccn1)c1ccccc1 (stereo not drawn)
→ i, i, -2.9%, 2e-08, -1%
COc1ccc(S(=O)(=O)N(C)CC(=O)NC2CC2)cc1
→ i, i, -2.1%, 3.1e-09, 2%
NC(=O)c1oc2ccc(Cl)cc2c1NC(=O)CN1CCOCC1
→ i, i, -1.1%, 2.2e-08, -5%
CC1CCCc2sc3nc(N4CCN(CCO)CC4)n4ncnc4c3c21 (stereo not drawn)
→ i, i, 2.4%, 7.4e-09, ?
CC(C#N)Sc1nc2ccccc2c(=O)n1-c1ccccc1 (stereo not drawn)
→ i, i, -0.4%, 1.3e-08, ?
CC(C)=C(NC(=O)c1ccccc1)C(=O)N1CCOCC1
→ nt, nt, -0.7%, nt, 0%
CC(Cc1ccccc1)C(=O)NCc1ccccn1 (stereo not drawn)
→ nt, nt, 0.1%, nt, ?
CC(=O)Cc1nsc(NC(=O)c2ccc(-c3ccccc3Cl)o2)n1
→ i, i, 0.2%, 1.5e-09, 7%
COc1cccc(OC)c1C(=O)Nc1cccc(C(C)=O)c1
→ i, i, 1.0%, 1e-09, 1%
CCCCCn1c(Sc2ncccn2)nc2c1c(=O)[nH]c(=O)n2C
→ i, i, -2.0%, 3.4e-08, -6%
Cc1nc(SCC#N)c2c(C)c(C)sc2n1
→ i, i, 1.5%, 1e-09, nt
CC1(C)Cc2c(c(=S)nc(-c3ccccc3)n2CCN2CCOCC2)CO1
→ i, i, 0.0%, 3.9e-09, 0%
COc1cc(C2Nc3ccc4ncccc4c3C3=C2C(=O)CCC3)cc(OC)c1O (stereo not drawn)
→ i, i, -2.9%, 8.6e-09, 10%
O=C(Nc1nc2ccc(Cl)cc2s1)c1ccc(Br)o1
→ nt, nt, 2.3%, nt, -1%[11.4 µM]
O=C(O)c1cc(Cl)ccc1NC(=O)C1CCCO1 (stereo not drawn)
→ i, i, -1.2%, 2.9e-08, 13%
CCCn1c(C)nc2c(NCCN(C(C)C)C(C)C)nc(C)nc21
→ nt, nt, -0.1%, nt, 1%
O=C(Nc1ccc(N2CCOCC2)cc1N1CCOCC1)c1ccco1
→ i, i, -1.3%, 2.4e-08, 5%
O=C(O)C1CC=C(Cl)CC1C(=O)NCc1ccccc1 (stereo not drawn)
→ i, i, 0.2%, 6e-09, -1%
CC(=O)Nc1ccc(NC(=O)CCC(=O)NCCO)cc1
→ nt, nt, -1.3%, nt, 0%[11.4 µM]
Cn1c(=O)c2cc(S(=O)(=O)NCCC(=O)NCCC3=CCCCC3)ccc2n(C)c1=O
→ i, i, -1.0%, 4.8e-09, 0%
O=C(NCCN1CCOCC1)c1cc2c(=O)n3ccccc3nc2n1Cc1ccccc1
→ i, i, -0.5%, 3e-08, 19%
O=C(CCN1C(=O)c2ccccc2C1=O)NCCN1CCOCC1
→ nt, nt, 1.7%, nt, -2%[11.4 µM]
CCOc1ccc(N2C(=O)CC(Sc3nc(C)cc(C)c3C#N)C2=O)cc1 (stereo not drawn)
→ i, i, 1.5%, 4e-09, ?
CC(=O)[C@H]1CC[C@@H]2[C@H]3CC=C4C[C@@H](O)CC[C@]4(C)[C@H]3CC[C@]12C
→ i, i, 0.2%[25.7 µM], 1.5e-08, 0%[25.6 µM]
COc1cc2nc(N3CC=[N+](C(=O)c4ccco4)CC3)nc(N)c2cc1OC
→ i, i, -1.4%, 5.4e-09, -1%
O=C(CNC(=O)C1CCCCC1)NCCCO
→ nt, nt, 1.3%, nt, 29%[11.4 µM]
CC(C)(C)C1CCc2onc(C(=O)NC3CCCC3)c2C1 (stereo not drawn)
→ i, i, -0.7%, 1.8e-09, 6%
O=C(Cc1c(F)cccc1Cl)Nc1ccncc1
→ i, i, -1.4%, 6.7e-08, 5%
Cc1ccc2c(c1)c1c3n2CCN(C(=O)CN2CCN(C)CC2)C3CCC1 (stereo not drawn)
→ i, i, 6.2%, 1.9e-08, 5%
COC(=O)[C@@]1(Cc2ccc(OC)cc2)[C@H]2c3cc(C(=O)N4CCCC4)n(Cc4ccc(C)o4)c3C[C@H]2CN1C(=O)c1ccccc1
→ nt, nt, -2.9%, nt, ?
COc1ccc(-n2c(Cc3cccn3C)nnc2SCC(=O)NCc2ccco2)cc1
→ nt, nt, 2.4%, nt, 5%
CC(=O)Nc1ccc(N2S(=O)(=O)c3ccccc3S2(=O)=O)cc1
→ i, i, 0.0%, 5.9e-09, -4%[11.4 µM]

(cont.)
Under each structure: Resorufin fluor, A488 autofl, AID923, A647 fluor, TSHR agonist
Cc1nnc(NC(=O)CCC(=O)N2CCN(CCc3ccccc3)CC2)s1
→ i, i, -0.8%, 1e-09, ?
COc1cc2c(cc1OC)C(C)N(C(=O)C1COc3ccccc3O1)CC2 (stereo not drawn)
→ nt, nt, -2.6%, nt, 9%
CC(C)(C)n1nc2c(c1NC(=O)c1cccc(C(F)(F)F)c1)CS(=O)C2 (stereo not drawn)
→ i, i, 1.0%, 1.6e-08, -2%
COC(=O)C1=C(C)N=C2SC(C)C(=O)N2C1c1ccc(C(=O)OC)cc1 (stereo not drawn)
→ i, i, nt, 2.9e-08, nt
CCCc1c(O)nc(SCCN(CC)CC)n(C(=O)c2ccccc2)c1=O
→ i, i, -0.6%, 1e-09, 16%
COc1ccccc1/C=c1\sc2nc(-c3ccco3)nn2c1=O
→ i, i, -2.4%, 6.3e-09, 4%[11.4 µM]
O=C(c1ccc(N2CCOCC2)cc1)c1cccs1
→ i, i, 2.8%, 8.7e-09, 6%
CCC(C)[C@H](NC(=O)NCc1cccc(OC)c1)C(=O)OC (stereo partly drawn)
→ i, i, -0.7%, 1.8e-08, 11%
Cc1ccc(C(=O)CSC2=C(C#N)C(c3ccco3)CC(=O)N2)c(C)c1 (stereo not drawn)
→ nt, nt, -0.7%, nt, 17%
C=CCn1c(SCc2c(F)cccc2Cl)nnc1-c1ccco1
→ i, i, 0.1%, 1e-09, ?
CC1Cc2ccccc2N1S(=O)(=O)c1ccc2c(c1)n(C)c(=O)c(=O)n2C (stereo not drawn)
→ i, i, -0.3%, 1e-08, 5%
CN(C)S(=O)(=O)Nc1ccc(Oc2ccccc2)cc1
→ i, i, -1.9%, 2.2e-09, 2%
O=C(NCc1ccncc1)c1ccc(Br)o1
→ nt, nt, 1.2%, nt, 1%[11.4 µM]
Cc1occc1-c1nnc(SCC(=O)Nc2nccs2)n1Cc1ccco1
→ i, i, 0.9%, 1e-09, ?
COC(=O)CSc1cc(SCC(=O)OC)c(C#N)c(SCC(=O)OC)c1
→ i, i, 5.1%, 2.9e-09, 8%
COc1cc(C(=O)OCC(=O)NCc2ccco2)cc(OC)c1OC
→ i, i, -0.6%, 1e-09, 2%[11.4 µM]
Oc1ccc(Nc2nc(-c3ccc(O)cc3)cs2)cc1
→ i, i, -0.6%, 1e-09, -42%[inhibitor]
COc1ccc(C(=O)Nc2cc(Cl)cc(Cl)c2)c(OC)n1
→ i, i, -0.4%, 1.6e-08, 3%
COc1ccccc1C(=O)Nc1ccc(S(=O)(=O)N2CCCC2)cc1
→ i, i, -2.7%, 5.8e-09, 2%
COc1ccc(C(C)(C)C)cc1NC(=O)C1C2C=CC(C2)C1C(=O)O (stereo not drawn)
→ i, i, -2.4%, 5e-09, -1%
O=S(=O)(NCC1CCCO1)c1ccc2oc3ccc(S(=O)(=O)NCC4CCCO4)cc3c2c1 (stereo not drawn)
→ i, i, -1.2%, 3.3e-08, 7%
Cc1cc(C)n(-c2ccc(C(=O)OCC(=O)N(CC(C)C)C3CCS(=O)(=O)C3)cc2)n1 (stereo not drawn)
→ i, i, -0.7%, 3.2e-09, 4%
CCOc1cc(N2CCOCC2)c(OCC)cc1NC(=O)Cn1[nH]c(=O)c2ccccc2c1=O
→ i, i, 0.2%, 3.1e-08, 7%
O=C(Cc1cccs1)N(Cc1ccco1)C1(C(=O)NC2CCCC2)CCCCC1
→ i, i, -0.2%, 8.5e-09, ?
CCCNC(=O)CCNC(=O)c1ccc(C(C)(C)C)cc1
→ i, i, 1.7%, 6.8e-09, 0%

From PubChem BioAssay
